Source: PubChem BioAssay (Broad Institute)
Ecoli rRNA inh = selective bacterial rRNA inhibition in E. coli; GFP signal change (wild-type ribosome), % (no concentration beside the values); E. coli WT GFP vs humanized-ribosome RFP mutants, fluorescence, 24 h; stronger effect = lower value; DMSO median 0, no signal -100; hit rate 1.6% among 350,000;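 active = significant combined selectivity score with lowered wild-type GFP, culture density cut under 30%, mutant RFP and density less affected; inactive = any of these conditions unmet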; note: one replicate is shown; some compounds called inactive have numbers as strong as hits
Ecoli rRNA inh OD600 = second read-out of Ecoli rRNA inh, no call of its own (marks repeat the call); OD600 change, %; measured here: OD600 growth;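 optical density of the mix in the first replicate; 0 = DMSO median and -100 = no signal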
Ecoli rRNA inh RFP = recorded beside Ecoli rRNA inh, whose call it bears; RFP signal change, %; measured here: RFP humanized mutant strains;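 first replicate; 0 = DMSO median and -100 = no signal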
* hit, by the source's call. Not all compounds are listed; rates above refer to the full screens.

mol | Ecoli rRNA inh RFP | Ecoli rRNA inh OD600 | Ecoli rRNA inh
C[C@H](CO)N1C[C@H](C)[C@@H](CN(C)Cc2ccc3cccnc3c2)OCc2cn(nn2)CCCC1=O | 0.2 | -4 | -2
Cc1cc(N2CCN(C(=O)OC(C)(C)C)C[C@H]2C)ccc1N1CCN(Cc2ccccc2)[C@H](C)C1 | -5.7 | 11 | 5
CCC(=O)N1[C@H](CO)[C@@H](c2ccc(-c3cccc(F)c3)cc2)[C@@H]1CNC(C)=O | 0.2 | -8 | -2
C[C@H](CO)N1C[C@H](C)[C@@H](CN(C)S(=O)(=O)c2ccc(Cl)cc2)Oc2ccc(NC(=O)CCCCCC(=O)Nc3ccccc3N)cc2CC1=O | -0.3 | 5 | -3
COc1ccc(NC(=O)N(C)C[C@H]2OCCCC[C@@H](C)Oc3ccc(NS(=O)(=O)c4ccc(OC)cc4)cc3C(=O)N([C@H](C)CO)C[C@@H]2C)cc1 | -0.6 | -1 | -1
COc1ccc(NC(=O)Nc2ccc3c(c2)C(=O)N([C@@H](C)CO)C[C@@H](C)[C@@H](CN(C)S(=O)(=O)c2ccc(OC)cc2)OCCCC[C@@H](C)O3)cc1 | -3.2 | 8 | 1
CCNC(=O)Nc1ccc2c(c1)C(=O)N(C)[C@@H]1CC[C@@H](CC(=O)NCc3cccc(F)c3)O[C@@H]1CO2 | -0.9 | 6 | -1
COc1ccc(S(=O)(=O)N(C)C[C@@H]2Oc3c(NS(=O)(=O)c4ccc(Cl)cc4)cccc3C(=O)N([C@@H](C)CO)C[C@H]2C)cc1 | 1.6 | 5 | -2
CCNC(=O)C[C@H]1CC[C@H]2[C@@H](COc3ccc(NC(=O)c4cccc(C#N)c4)cc3C(=O)N2C)O1 | -1.5 | 2 | -5
COc1ccc(-c2ccc3c(c2)[C@@H]2[C@@H](CCN2C(=O)c2ccc4c(c2)OCO4)[C@H](CO)N3)cc1 | 4.3 | -2 | 0
COc1ccc(S(=O)(=O)Nc2cccc3c2O[C@H](CN(C)Cc2ccc(C(=O)O)cc2)[C@@H](C)CN([C@@H](C)CO)C3=O)cc1 | 0.3 | 2 | 3
C/C=C/c1ccc([C@@H]2[C@@H](CNC(=O)C3CCC3)N(C(=O)NCCC)[C@H]2CO)cc1 | 0.6 | -1 | -6
CO[C@H]1CN(C)C(=O)c2cc(NC(=O)c3ccc(F)cc3)ccc2OC[C@H](C)N(C(=O)CC2CC2)C[C@@H]1C | -1.4 | -1 | 0
C[C@@H]1CN([C@@H](C)CO)C(=O)c2cc(NC(=O)Nc3ccccc3)ccc2O[C@@H](C)CCCCO[C@@H]1CN(C)C(=O)Nc1cccc2ccccc12 | -1.0 | 6 | 2
N#C[C@@H]1[C@@H](c2ccccc2-c2cccc(F)c2)[C@H](CO)N1C(=O)CN1CCOCC1 | 3.7 | 8 | 6
COc1ccc(S(=O)(=O)N(C)C[C@H]2Oc3ccc(NC(=O)Nc4cccc5ccccc45)cc3C(=O)N([C@@H](C)CO)C[C@H]2C)cc1 | 0.1 | 0 | 1
C[C@H]1CN([C@@H](C)CO)S(=O)(=O)c2ccc(C3=CCCCC3)cc2O[C@@H]1CN(C)S(=O)(=O)c1cn(C)cn1 | 7.8 | -18 | -3
Cc1ccc(N)cc1CN1CCN(c2ncc(Cc3ccccc3)cn2)CC1 | 5.1 | -20 | -22
CC(C)NC(=O)NCC[C@@H]1CC[C@H](NS(=O)(=O)c2ccccc2)[C@H](CO)O1 | -4.4 | 2 | 2
C[C@H](CO)N1C[C@H](C)[C@H](CN(C)Cc2ccc(C(F)(F)F)cc2)OCc2cn(nn2)CCCC1=O | -1.7 | -9 | -11
CC(C)NC(=O)Nc1ccc2c(c1)C(=O)N([C@@H](C)CO)C[C@H](C)[C@@H](CN(C)CC1CC1)OCCCC[C@H](C)O2 | -2.6 | 7 | 6
Cc1noc(C)c1NC(=O)N(C)C[C@@H]1OCCCC[C@@H](C)Oc2ccc(NC(=O)Nc3ccccc3)cc2C(=O)N([C@H](C)CO)C[C@H]1C | 0.6 | -13 | -1
CCCNC(=O)C[C@H]1CC[C@H]2[C@H](COc3ccc(NC(=O)COC)cc3C(=O)N2C)O1 | -0.6 | 8 | 4
CCNC(=O)C[C@H]1CC[C@H]2[C@H](COc3ccc(NC(=O)Nc4cccc(OC)c4)cc3C(=O)N2C)O1 | -1.8 | 4 | -1
Cc1cc(N2CCNC[C@@H]2C)ccc1N1CCS(=O)(=O)CC1 | 1.5 | 6 | 11
C[C@H]1CN([C@@H](C)CO)S(=O)(=O)c2ccc(Br)cc2O[C@@H]1CN(C)C(=O)C1CCCCC1 | -4.5 | -27 | -7
O=C(C[C@@H]1C[C@@H]2c3cc(NC(=O)Cc4ccncc4)ccc3O[C@@H]2[C@@H](CO)O1)NCCc1ccccc1 | 0.4 | -1 | 1
C[C@@H]1CN([C@@H](C)CO)C(=O)c2cc(N(C)C)ccc2O[C@@H](C)CCCCO[C@H]1CN(C)C(=O)Cc1ccccc1 | 1.0 | -6 | 0
COc1ccc(C2CC(=O)C(c3ccc(C(N)=O)cc3)=CN2Cc2ccccc2)cc1 (configuration not stated) | -4.6 | -2 | -6
CCCN(C)C[C@@H]1Oc2cc(C3=CCCC3)ccc2S(=O)(=O)N([C@@H](C)CO)C[C@@H]1C | 2.3 | 1 | 5
CNC(=O)C[C@@H]1CC[C@@H]2[C@@H](COc3ccc(NC(=O)c4ccc(C(F)(F)F)cc4)cc3C(=O)N2C)O1 | -2.8 | -7 | -3
CNC[C@@H]1Oc2c(NC(C)=O)cccc2C(=O)N(C)C[C@H]1C | -0.6 | 3 | 2
CCCC#Cc1ccc([C@@H]2[C@@H](CO)N3C(=O)CN(C(=O)c4cccc(F)c4)C[C@@H]23)cc1 | 2.0 | -50 | -17
CNC[C@H]1OCCCC[C@@H](C)Oc2ccc(NC(=O)Nc3ccc(OC)cc3)cc2C(=O)N([C@H](C)CO)C[C@@H]1C | -1.7 | 0 | 3
COC(=O)C1=C(C)N(Cc2cccc(C(F)(F)F)c2)C(=NCc2ccc3c(c2)OCO3)NC1c1ccc(Cl)cc1 (configuration not stated) | -16 | -76 | -46
CN1c2ccc(-c3cccc(F)c3)cc2[C@H]2[C@H](CCN2C(=O)c2ccc3c(c2)OCO3)[C@@H]1CO | -2.8 | -17 | -2
C[C@H](O)[C@@H]1C(=O)N2CCc3c([nH]c4c(-c5ccc6c(c5)OCO6)cccc34)[C@@H]2C[C@@H]1N(C)C(=O)NC1CCCCC1 | 2.0 | 3 | 3
COCC(=O)Nc1ccc2c(c1)C(=O)N(C)[C@H]1CC[C@@H](CC(=O)NCc3cccc(F)c3)O[C@H]1CO2 | 1.5 | 6 | 3
C[C@@H]1CN([C@H](C)CO)S(=O)(=O)c2ccc(-c3ccncc3)cc2O[C@@H]1CN(C)C(=O)C1CCC1 | -1.2 | -3 | -2
CO[C@H]1CN(C)C(=O)c2cc(NC(=O)C3CC3)ccc2OC[C@H](C)N(C(=O)c2ccccn2)C[C@@H]1C | -1.4 | -1 | 1
Cc1noc(C)c1NC(=O)N(C)C[C@@H]1OCCCC[C@@H](C)Oc2ccc(NC(=O)Nc3cccc4ccccc34)cc2C(=O)N([C@H](C)CO)C[C@@H]1C | -2.9 | -2 | -3
COc1ccc2c3c(n(C)c2c1)[C@H](CO)N(Cc1cccnc1)CC31CCN(C(=O)NC(C)C)CC1 | 0.7 | 2 | 2
COc1cccc(S(=O)(=O)Nc2ccc3c(c2)OC[C@@H](C)N(C(=O)Cc2cccnc2)C[C@@H](C)[C@H](OC)CN(C)C3=O)c1 | -0.4 | 1 | 1
Cc1ccccc1S(=O)(=O)N1CC[C@@H]2[C@H](CO)Nc3ccc(-c4cccc(C#N)c4)cc3[C@@H]21 | 0.5 | -34 | -27
COc1ccc(S(=O)(=O)N[C@@H]2C=C[C@H](CC(=O)NCCc3ccncc3)O[C@H]2CO)cc1 | -1.3 | 0 | -1
COc1ccc(S(=O)(=O)N(C)C[C@@H]2Oc3c(NC(=O)c4ccc(-c5nccs5)cc4)cccc3C(=O)N([C@@H](C)CO)C[C@H]2C)cc1 | -15 | -80 | -57
COC(=O)C1=C(C)N(Cc2cccc(C(F)(F)F)c2)C(=NCC2CC2)NC1c1ccc(F)cc1 (configuration not stated) | -17 | -78 | -47
C[C@@H]1CCCCO[C@@H](CN(C)Cc2ccccc2)[C@@H](C)CN([C@H](C)CO)C(=O)c2cc(NS(C)(=O)=O)ccc2O1 | -3.3 | -4 | 0
C[C@@H]1CN([C@H](C)CO)C(=O)Cc2cc(NC(=O)CCCCCC(=O)Nc3ccccc3N)ccc2O[C@H]1CN(C)S(=O)(=O)c1cccs1 | 1.4 | 0 | 0
C[C@@H]1CN([C@H](C)CO)C(=O)Cc2cc(NS(=O)(=O)c3cn(C)cn3)ccc2O[C@@H]1CN(C)C(=O)NC1CCCCC1 | -1.4 | 7 | 0
CC(C)NC(=O)N(C)C[C@H]1Oc2ccccc2CC(=O)N(C)C[C@H]1C | -0.2 | 0 | 0
C[C@@H]1CN(C)C(=O)c2cc(N(C)C)ccc2O[C@H]1CN(C)S(C)(=O)=O | -0.9 | 2 | -1
C[C@@H]1CN([C@@H](C)CO)C(=O)c2cc(NC(=O)Nc3cccc4ccccc34)ccc2O[C@@H](C)CCCCO[C@@H]1CN(C)C | -3.4 | -5 | -5
C[C@H]1CCCCO[C@@H](CN(C)Cc2ccncc2)[C@@H](C)CN([C@@H](C)CO)C(=O)c2cc(NC(=O)Nc3ccc(F)cc3)ccc2O1 | -1.0 | 2 | 1
C[C@@H]1CN([C@H](C)CO)C(=O)c2cc(NC(=O)C3CCCCC3)ccc2O[C@@H]1CN(C)Cc1ccc(Oc2ccccc2)cc1 | 4.0 | 2 | 4
C[C@@H]1CN([C@H](C)CO)C(=O)c2cc(-c3cccnc3)cnc2O[C@H]1CN(C)Cc1ccccc1 | -0.9 | 11 | 5
O=C(c1cccc(F)c1)N1CC2(C1)[C@@H](c1ccccc1)[C@H](CO)N2C(=O)C1CCCC1 | 0.1 | -8 | -5
CCC(=O)Nc1ccc2c(c1)C(=O)N(C)C[C@@H](OC)[C@H](C)CN(Cc1cncnc1)[C@@H](C)CO2 | -1.6 | 4 | 1
C[C@H]1CN([C@@H](C)CO)C(=O)c2cc(NS(=O)(=O)c3ccc(F)cc3)ccc2O[C@H]1CN(C)S(C)(=O)=O | 0.0 | 1 | 2
O=C(CN1CCOCC1)N1CC[C@@H]2[C@H](CO)Nc3ccc(Br)cc3[C@@H]21 | 0.3 | 10 | 8

Other records.
mol | Ecoli rRNA inh RFP | Ecoli rRNA inh OD600 | Ecoli rRNA inh
C/C=C/c1ccc2c(c1)O[C@@H](CN(C)C(=O)C1CCCCC1)[C@@H](C)CN([C@@H](C)CO)S2(=O)=O | 0.5 | -11 | -6
COC(=O)C[C@@H]1C[C@H]2c3cc(NC(=O)Nc4ccc(F)cc4)ccc3O[C@H]2[C@@H](CO)O1 | -0.9 | 4 | -1
Cc1ccccc1S(=O)(=O)N1CC[C@@H]2[C@H]1c1cc(-c3ccc(F)cc3)ccc1N[C@@H]2CO | -1.1 | -10 | -9
COCC(=O)Nc1ccc2c(c1)OC[C@H](C)N(Cc1cncnc1)C[C@@H](C)[C@@H](OC)CN(C)C2=O | -0.7 | 5 | 5
C[C@@H]1CN([C@@H](C)CO)S(=O)(=O)c2ccc(C3=CCCCC3)cc2O[C@H]1CN(C)CC1CC1 | 5.1 | -2 | 0
CO[C@H]1CN(C)C(=O)c2cc(NS(C)(=O)=O)ccc2OC[C@@H](C)N(Cc2cccnc2)C[C@H]1C | -1.5 | 6 | 0
C[C@@H]1CN([C@@H](C)CO)C(=O)Cc2cc(NC(=O)Cn3cnnn3)ccc2O[C@H]1CN(C)S(C)(=O)=O | -1.9 | 4 | 3
O=C(Nc1cccc(Cl)c1)N1C[C@@H]2[C@H](c3ccccc31)[C@@H](CO)N2CC1CCCCC1 | -13* | -38* | -56*
C[C@@H]1CN([C@@H](C)CO)C(=O)c2cc(NC(=O)c3ccccc3)ccc2O[C@@H](C)CCCCO[C@H]1CN(C)S(=O)(=O)c1cccs1 | -0.2 | 0 | -3
COc1cccc(NC(=O)N(C)C[C@H]2OCc3cn(nn3)CCCC(=O)N([C@H](C)CO)C[C@H]2C)c1 | -0.4 | -3 | 0
Cc1noc(C)c1NC(=O)Nc1ccc2c(c1)CC(=O)N([C@@H](C)CO)C[C@@H](C)[C@H](CN(C)S(=O)(=O)c1cn(C)cn1)O2 | 0.1 | 12 | 3
C[C@@H]1CN([C@H](C)CO)C(=O)c2cc(C#CC3(O)CCCC3)cnc2O[C@H]1CN(C)C(=O)C1CC1 | 1.1 | 7 | 3
C[C@@H]1CN([C@@H](C)CO)C(=O)Cc2cc(NC(=O)CCCN(C)C)ccc2O[C@@H]1CN(C)S(=O)(=O)c1cccs1 | -0.5 | 13 | 1
COc1ccc(NC(=O)N(C)C[C@H]2Oc3ccc(NC(=O)Nc4ccc5c(c4)OCO5)cc3CC(=O)N([C@H](C)CO)C[C@H]2C)cc1 | 0.9 | 3 | 0
